SARS PLP yeast = qHTS of Yeast-based Assay for SARS-CoV PLP. S. cerevisiae expressing SARS-CoV PLpro, growth rescue; control for the full effect not named in the record. Potency, µM (top dose mostly 32.9 µM), inactives show at the top dose activity, positive = growth rescue. actives 0.19% (n = 330,000). AID 485353, 2010; further: 0% is about no effect; nearly all actives have a fitted effect of over 55% in size; growth read by luminescence after 48 h
Cruzain inh noDet = qHTS Assay for Promiscuous and Specific Inhibitors of Cruzain (without detergent) | AID 1476, 2009 | purified cruzain, Z-FR-AMC fluorescence, no detergent | Potency, µM, inactives show max response, negative = inhibition, actives largely listed as inhibitors | Cruzipain (Trypanosoma cruzi), P25779 | actives 2.3% (n = 200,000); active means well fitted curve in the direction sought with a large enough effect; inconclusive means small, poorly fitted or top-dose-only effect, or another doubt; inactive means no such curve, though single readings can be large; an effect the other way counts as inactive or inconclusive;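 further: plate controls were enzyme without inhibitor for no effect and buffer without enzyme for full effect; nearly all actives have a fitted effect of over 40% in size; top concentration of the series not given in the record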
Target sequence (P25779 123-467 limits assumed): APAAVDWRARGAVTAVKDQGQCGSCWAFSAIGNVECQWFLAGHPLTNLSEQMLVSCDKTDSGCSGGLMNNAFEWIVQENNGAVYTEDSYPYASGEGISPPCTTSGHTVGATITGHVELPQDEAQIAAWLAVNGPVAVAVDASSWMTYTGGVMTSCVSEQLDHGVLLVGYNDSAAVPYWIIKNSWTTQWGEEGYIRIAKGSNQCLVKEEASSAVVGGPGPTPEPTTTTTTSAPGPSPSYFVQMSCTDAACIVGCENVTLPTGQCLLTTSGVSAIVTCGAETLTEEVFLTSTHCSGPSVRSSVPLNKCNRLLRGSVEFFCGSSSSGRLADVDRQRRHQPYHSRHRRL
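Detergent-free condition (0.00005% Triton X-100) in acetate buffer pH 5.5 with DTT. 1.5 nM enzyme and compound were pre-mixed 15 min, then 2 uM Z-FR-AMC substrate added; reaction progress from fluorescence change between first and third reads (60 s).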
Cruzain Triton = qHTS Assay for Promiscuous and Specific Inhibitors of Cruzain (with detergent) | actives 0.43% (n = 200,000) | AID 1478, 2009 | Potency, µM, for the others: max response, negative = inhibition, usual class: inhibitors | Cruzipain (Trypanosoma cruzi), P25779 | purified cruzain, Z-FR-AMC fluorescence, 0.01% Triton; active means well fitted curve in the direction sought with a large enough effect; inconclusive means small, poorly fitted or top-dose-only effect, or another doubt; inactive means no such curve, though single readings can be large; an effect the other way counts as inactive or inconclusive;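 further: plate controls were neutral wells for no effect and buffer without enzyme for full effect; nearly all actives have a fitted effect of over 40% in size; top concentration of the series not given in the record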
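Detergent-containing arm of a paired screen for aggregation-based inhibition: 0.01% Triton X-100 present. Cruzain at 1.5 nM cleaved 2 uM Z-FR-AMC at pH 5.5 with 5 mM DTT; AMC fluorescence gain over 60 s measured activity.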
Marburg entry inh = qHTS for inhibitors of binding or entry into cells for Marburg Virus | Marburg virus pseudotyped entry inhibition, cell reporter; control for the full effect not named in the record; about a third of the inactives were read at about 46 µM | actives 1.8% (n = 300,000) | AID 540276, 2011 | Potency, µM (series often up to 37.8 µM), without a hit: at the highest dose activity change, negative = inhibition, usual class: inhibitors; active = well fitted inhibition curve with a large enough effect; inconclusive = small, poorly fitted or top-dose-only effect, or effect the other way; inactive = flat fitted curve, though single readings scatter; tested in HEK293 cells; about a fifth of its hits are not listed in these tables; further: on the % scale 0 is the no-effect control and ±100 the full control effect; luciferase read-out
NS1 inh = qHTS Assay for Inhibitors of Influenza NS1 Protein Function; S. cerevisiae slowed by influenza A NS1, growth recovery by OD600; Potency, µM (titrated, usually from 46.1 µM), without a hit: at the top dose activity, positive = more growth; actives 0.4% (n = 270,000); AID 2326, 2010; further: actives are rising curves; nearly all actives have a fitted effect of over 50% in size
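OD600 was taken as the measure of yeast growth restored by compound in an NS1-expressing S. cerevisiae strain. Cells had been washed out of glucose medium and diluted 1:100 into galactose -URA medium, pH 6.0.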
LASV entry inh = qHTS for Inhibitors of binding or entry into cells for Lassa Virus; Potency, µM (doses to about 37.9 µM), without a hit: at the top dose activity change, negative = inhibition, most hits filed as inhibitors; Lassa virus pseudotype entry inhibition, cell reporter; control for the full effect not named in the record; actives 1.2% (n = 300,000); AID 540256, 2011; active means well fitted inhibition curve with a large enough effect; inconclusive means small, poorly fitted or top-dose-only effect, or effect the other way; inactive means flat fitted curve, though single readings scatter; tested in HEK293 cells; further: on the % scale 0 is the no-effect control and ±100 the full control effect; nearly all actives have a fitted effect of over 50% in size; luciferase read-out
RE007 growth inh = qHTS Assay for Inhibitors of the HIV-1 protein Vpr | Potency, µM (highest dose often 92.2 µM), inactives show at the highest dose activity change, negative = less growth | S. pombe RE007 Vpr strain, BacTiter-Glo ATP luminescence, 24 h; control for the full effect not named in the record | AID 651644, 2012 | actives 0.21% (n = 360,000); active = well fitted falling curve with a large enough effect; inconclusive = small, poorly fitted or top-dose-only effect; inactive = no such curve, though single readings can be large or run the other way;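 further: on the % scale 0 is the no-effect control and ±100 the full control effect; nearly all actives have a fitted effect of over 50% in size; the assay follows cell death caused by Vpr and the record does not say whether a fall means rescue or toxicity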
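Fission yeast RE007 carrying one integrated HIV-1 vpr copy, seeded at OD 0.01 in PMG+AL medium with 23 nL pinned compound. Grown 24 h at 30 degrees; viability read by BacTiter-Glo luminescence after 5 min.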
StopGo reporter = High Throughput Screening for Foot and Mouth Disease Virus Antivirals | Potency, µM (highest dose often 57.9 µM), without a hit: top-dose signal change, negative = less light | actives 1.2% (n = 410,000) | human cells with a luciferase reporter of 2A StopGo recoding; control for the full effect not named in the record | AID 1159524, 2015; active = well fitted falling curve with a large enough effect; inconclusive = small, poorly fitted or top-dose-only effect; inactive = no such curve, though single readings can be large or run the other way; tested in HEK293T cells; further: on the % scale 0 is the no-effect control and ±100 the full control effect; nearly all actives have a fitted effect of over 45% in size; luciferase light after 4 h
* hit, by the source's call; ? = inconclusive; . = not tested or not shown; [ ] = remark or other dose. Unless noted, the call rests on the fitted dose curve; in most records, active means well fitted rising curve with a large enough effect; inconclusive means small, poorly fitted or top-dose-only effect; inactive means no such curve, though single readings can be large or run the other way. Potency means the concentration at half of the fitted maximal effect. Rows were taken by chance. About 4.7% of those tested had a hit in this group.

SMILES	SARS PLP yeast	Cruzain inh noDet	Cruzain Triton	Marburg entry inh	NS1 inh	LASV entry inh	RE007 growth inh	StopGo reporter
COc1cc(CNC(=O)CCC(=O)N2C[C@H]3C[C@H](C2)c2cccc(=O)n2C3)cc(OC)c1OC	5.5%	.	.	.	15.1%	.	3.5%	-14.9%
CN(C)S(=O)(=O)c1ccc(N2CCOCC2)nc1	8.4%	-5.1%	2.9%	?	10.3%	?	-10.1%	-15.1%
O=C(c1ccc2c(c1)OCO2)N1CCc2ccccc21	0.9%	.	.	?	-5.5%	11.9%	-9.5%	21.5%
Cc1ccccc1-n1nc(C(=O)c2cccs2)cc(-c2nc3ccccc3[nH]2)c1=N	4.0%	25.1µM*	-6.2%	?	6.6%	-6.7%	4.5%	-10.1%
O=C(CNC(=O)C12CC3CC(CC(C3)C1)C2)OCC(=O)N1CCCCC1	3.9%	.	.	-10.3%[46.1 µM]	.	6.9%	2.7%	0.1%
O=C(NCCN1CCN(C(=O)c2ccc(F)cc2)CC1)c1ccc(F)cc1	3.4%	.	.	-9.2%	18.8%	8.6%	-6.3%	-16.1%
CN(C)S(=O)(=O)N1CCC(Cc2ccccc2)CC1	?	-4.7%	-1.2%	16.2%	-5.8%	0.4%	-3.0%	-2.3%
Cc1c(C(=O)NCc2ccc3c(c2)OCO3)oc2ccc(S(=O)(=O)N3CCCCC3)cc12	2.7%	?	3.0%	?	?	?	0.6%	?
O=C(Nc1ccccc1F)C(c1ccccc1)c1ccccc1	.	.	.	?	.	31.4%	14.0%	-13.9%
CN(C)/C=N/c1nc2ccc3c(c2s1)CCCC3	-0.4%	12.5%	-5.5%	?	-79.0%	?	-14.3%	.
COC(=O)c1sccc1NC(=O)COc1ccc(Cl)cc1	-2.7%	-7.3%	-5.2%	-2.3%	-4.1%	1.3%	-4.2%	-16.1%
COc1ccc(C(=O)N/N=C/c2ccc(OC)c(COc3c(F)c(F)cc(F)c3F)c2)cc1	-0.7%	.	.	5.4%[46.1 µM]	-7.3%	-24.0%[46.1 µM]	-0.8%	?
O=c1onc(-c2cccnc2)n1-c1ccccc1F	0.0%	.	.	1.3%	1.6%	.	5.6%	2.8%
COc1cc(C(N)=O)cc(Cl)c1OC	-1.0%	.	.	3.0%	-3.7%	0.7%	12.1%	-10.0%
O=[N+]([O-])c1ccc(N2CCCCC2)c(-c2nn[nH]n2)c1	0.2%	.	.	14.4%[46.1 µM]	9.1%	9.0%	8.9%	-7.9%
CCOc1ccc(NC(=O)CCc2nnc3ccc(N4CCC(C)CC4)nn23)cc1	1.0%	.	.	-26.7%[46.1 µM]	-8.2%	?	-3.6%	-6.6%
C/C(=N\NC(=S)Nc1cc(S(=O)(=O)N2CCOCC2)ccc1Cl)c1ccccc1F	-6.4%	-16.9%	-4.0%	?	?	?	6.6%	12.6µM*
COc1cccc(N2C(=O)CC(N3CCN(c4ccc([N+](=O)[O-])cc4)CC3)C2=O)c1 (configuration not stated)	-1.0%	.	.	.	-2.6%	.	-3.2%	-28.7%
COc1ccc(/C=N/Nc2ccc(C(=O)O)cc2)cc1Br	-6.7%	.	.	3.16µM*	.	?	?	22.4µM*
Cc1ccc(S(=O)(=O)Nc2cccc(N(C)S(C)(=O)=O)c2)cc1[N+](=O)[O-]	-0.1%	.	.	.	3.9%	.	8.0%	15.3%
O=C(CNC(=O)c1ccc(Cl)cc1Cl)OCc1nnc(-c2ccccc2Br)o1	-5.9%	.	.	5.6%	.	12.8%	13.6%	13.5%
S=c1nc(-c2ccccc2)[nH]c2ccccc12	2.2%	.	.	1.5%[46.1 µM]	.	2.7%[46.1 µM]	-14.3%	-1.4%
Cc1ccc(NC(=O)C(NC2CCCc3ccccc32)c2ccccc2)cc1Cl (configuration not stated)	-36.2%	-26.5%	2.4%	?	-20.8%	?	-29.9%	-14.3%
N#CCCN1CCN(S(=O)(=O)c2ccc(S(=O)(=O)NCC3CCCO3)cc2)CC1 (configuration not stated)	?	10.6%	1.9%	-7.3%	10.4%	.	18.5%	0.0%

The closing 4 entries of the section before lead into the next.
SMILES	SARS PLP yeast	Cruzain inh noDet	Cruzain Triton	Marburg entry inh	NS1 inh	LASV entry inh	RE007 growth inh	StopGo reporter
O=C(CNC(=O)c1ccc(Cl)cc1Cl)OCc1nnc(-c2ccccc2Br)o1	-5.9%	.	.	5.6%	.	12.8%	13.6%	13.5%
S=c1nc(-c2ccccc2)[nH]c2ccccc12	2.2%	.	.	1.5%[46.1 µM]	.	2.7%[46.1 µM]	-14.3%	-1.4%
Cc1ccc(NC(=O)C(NC2CCCc3ccccc32)c2ccccc2)cc1Cl (configuration not stated)	-36.2%	-26.5%	2.4%	?	-20.8%	?	-29.9%	-14.3%
N#CCCN1CCN(S(=O)(=O)c2ccc(S(=O)(=O)NCC3CCCO3)cc2)CC1 (configuration not stated)	?	10.6%	1.9%	-7.3%	10.4%	.	18.5%	0.0%
Cc1ccc(C(=O)Nc2nnc(C)s2)cc1	-1.8%	.	.	?	.	-23.6%	-3.3%	14.2%
COc1ccc(NS(=O)(=O)c2cc3c4c(c2)CCN4C(=O)CC3)cc1OC	-4.3%	.	.	-13.0%	.	?	-1.8%	6.8%
CCOP(=O)(OCC)C(NC(=O)Nc1ccc(Cl)cc1)c1ccccc1 (configuration not stated)	17.3%	6.9%	-8.6%	-0.6%	4.0%	-0.9%	-22.3%	-6.1%
CCOC(=O)C1(NC(=O)C2(N3C(=O)c4ccccc4C3=O)CCCC2)CCCC1	.	.	.	-3.1%	.	2.2%	-1.5%	4.3%
COc1cccc(OC)c1OCCCOc1cccc2cccnc12	-1.5%	.	.	?	-33.6%	?	-19.1%	7.9%
COc1cccc(CNC(=O)C2CCN(C(=O)N3CCOc4ccc(Cl)cc43)CC2)c1OC	.	?	-5.7%	.	.	?	.	-22.2%
CCCn1c(=O)c(C(=O)Nc2cc(C)ccn2)c(O)c2ccccc21	-0.6%	.	.	-0.2%	-1.6%	11.7%	5.1%	-5.9%
CCc1cc(C(=O)Nc2ccc(C)cc2Br)cs1	-4.3%	-7.2%	-2.2%	?	-24.5%	?	-24.4%	57.6%[activator]
Cc1[nH]c2ccccc2c1C(=O)CSc1ncn[nH]1	26.6%	8.3%	-4.1%	7.3%	1.3%	?	23.9%	15.8%
COc1ccc(CC(=O)N/N=C/c2ccc(Cl)s2)cc1OC	-0.6%	.	.	.	-7.2%	.	5.2%	15.0%
CN(Cc1ccon1)C(=O)CCc1nnc(Cc2ccc(-c3ccccc3)cc2)o1	-1.3%	.	.	-7.9%[46.1 µM]	-7.0%	?	-0.2%	1.6%
O=C(CSc1nnc2nnc3ccccc3n12)N1CCOCC1	0.1%	.	.	.	3.7%	.	-5.6%	14.5%

Two compounds from above with just Marburg entry inh, Cruzain inh noDet and RE007 growth inh.
mol	Marburg entry inh	Cruzain inh noDet	RE007 growth inh
O=c1onc(-c2cccnc2)n1-c1ccccc1F	1.3%	.	5.6%
Cc1[nH]c2ccccc2c1C(=O)CSc1ncn[nH]1	7.3%	8.3%	23.9%

Next results
SMILES	SARS PLP yeast	Cruzain inh noDet	Cruzain Triton	Marburg entry inh	NS1 inh	LASV entry inh	RE007 growth inh	StopGo reporter
CC(C)CN(CCNC(=O)c1cn(C)c2ccc(S(=O)(=O)N3CCCCCC3)cc2c1=O)CC(C)C	.	1.7%	-1.4%	5.6%[46.1 µM]	.	5.5%[46.1 µM]	.	-15.3%
Cc1nn(Cc2ccccc2Cl)c(C)c1C(=O)Nc1nnc(C2CC2)s1	-1.4%	13.7%	-0.4%	0.891µM*	-48.3%	?	4.1%	-14.4%
CC1CCCC(C)N1/N=C/c1ccc([N+](=O)[O-])cc1 (configuration not stated)	-1.2%	.	.	-1.3%[46.1 µM]	5.2%	-29.4%[46.1 µM]	-10.7%	-13.3%
CC(=O)Oc1ccc(OC(C)=O)c(S(=O)(=O)c2ccc(C)c(C)c2)c1	-0.5%	.	.	.	-5.5%	.	19.4%	35.7%[activator]
CCn1c(=N)c(C(=O)NC2CCCCC2)cc2c(=O)n3cc(C)ccc3nc21	.	21.9%	-2.7%	2.3%[46.1 µM]	.	-22.8%[46.1 µM]	.	10.6%
C[C@]12CC[C@@H]3c4ccc(OC(=O)c5ccccc5)cc4CC[C@H]3[C@@H]1CC[C@@H]2O	-5.8%	?	-3.3%	-24.6%	-1.5%	3.2%	2.8%	-28.0%
COc1ccc(CC(=O)N[C@@H](CCSC)c2nc3ccccc3[nH]2)cc1	-2.0%	.	.	-14.2%[46.1 µM]	.	-18.6%	-1.1%	-14.1%
CC1(C)CC(c2nc(-c3ccc([N+](=O)[O-])cc3)cs2)CCO1 (configuration not stated)	-3.1%	.	.	?	.	-2.7%	7.0%	0.0%
CCC(Oc1ccccc1)C(=O)Nc1ncc([N+](=O)[O-])s1 (configuration not stated)	-5.7%	.	.	.	-84.0%	.	-5.9%	6.5%
CC1CN(S(=O)(=O)c2cccc(-c3csc(-c4ccccc4)n3)c2)CC(C)O1 (configuration not stated)	-15.4%	1.4%	-9.0%	?	10.6%	?	-4.5%	-7.4%
Cc1cccc(NC(=S)N2CCN(Cc3ccc4c(c3)OCO4)CC2)c1C	7.4%	-7.9%	-0.8%	-13.6%	1.5%	-10.2%	-12.9%	0.0%
CC(C)(C)c1ccc(C(=O)N/C(=C\c2cccc([N+](=O)[O-])c2)C(=O)Nc2cccc(C(=O)O)c2)cc1	23.7%	.	.	12.9%	?	6.5%	-1.6%	0.9%
CCOC(=O)N1CCN(CC(O)c2ccc3c(c2)CCN3)CC1 (configuration not stated)	-4.8%	3.0%	5.3%	3.2%	11.7%	?	-5.0%	0.7%

Screening data as filed in PubChem.
